# Screening data: PubChem, National Center for Advancing Translational Sciences (NCATS)
# Cruzain noTriton = inhibitors of Trypanosoma cruzi cruzain without detergent; P25779; purified cruzain, Z-FR-AMC fluorescence, no detergent; Potency, µM, inactives show max response, negative = inhibition, actives largely listed as inhibitors; hit rate 2.3% among 200,000; AID 1476;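 note: plate controls were enzyme without inhibitor for no effect and buffer without enzyme for full effect; nearly all actives have a fitted effect of over 40% in size; top concentration of the series not given in the record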
# Target sequence (P25779 123-467 limits assumed): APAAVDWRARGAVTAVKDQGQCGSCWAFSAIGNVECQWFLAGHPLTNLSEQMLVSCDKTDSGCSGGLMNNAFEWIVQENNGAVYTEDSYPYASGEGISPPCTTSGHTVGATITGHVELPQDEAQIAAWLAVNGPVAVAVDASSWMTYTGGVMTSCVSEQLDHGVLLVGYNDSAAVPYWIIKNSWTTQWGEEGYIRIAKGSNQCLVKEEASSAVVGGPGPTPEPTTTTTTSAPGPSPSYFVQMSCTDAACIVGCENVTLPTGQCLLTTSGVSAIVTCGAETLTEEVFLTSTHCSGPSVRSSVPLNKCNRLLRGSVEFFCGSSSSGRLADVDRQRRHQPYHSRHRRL
#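 Purified cruzain at 1.5 nM, pre-incubated 15 min with compound at room temperature in 100 mM sodium acetate pH 5.5, 5 mM DTT, 0.00005% Triton X-100. Reaction started with 2 uM Z-FR-AMC; AMC fluorescence increase over 60 s gives rate.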
# SARS PLpro yeast = blocks SARS-CoV papain-like protease in a yeast assay | Potency, µM (top dose mostly 32.9 µM), for inactives: at the highest dose activity, positive = growth rescue | S. cerevisiae expressing SARS-CoV PLpro, growth rescue; control for the full effect not named in the record | hit rate 0.19% among 330,000 | AID 485353; active means well fitted rising curve with a large enough effect; inconclusive means small, poorly fitted or top-dose-only effect; inactive means no such curve, though single readings can be large or run the other way; note: 0% is about no effect; nearly all actives have a fitted effect of over 55% in size; growth read by luminescence after 48 h
# RE007 growth inh = less growth of the S. pombe RE007 Vpr strain; S. pombe RE007 Vpr strain, BacTiter-Glo ATP luminescence, 24 h; control for the full effect not named in the record; Potency, µM (series often up to 92.2 µM), for the others: at the highest dose activity change, negative = less growth; hit rate 0.21% among 360,000; AID 651644; active = well fitted falling curve with a large enough effect; inconclusive = small, poorly fitted or top-dose-only effect; inactive = no such curve, though single readings can be large or run the other way;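 note: % is set by controls: 0 for no effect and ±100 for the full control effect; nearly all actives have a fitted effect of over 50% in size; the assay follows cell death caused by Vpr and the record does not say whether a fall means rescue or toxicity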
#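 Fission yeast strain RE007, carrying one chromosomally integrated HIV-1 vpr copy, was seeded at OD 0.01 in PMG+AL medium with 23 nL pinned compound. After 24 h at 30 °C and 99% humidity, viability was read by BacTiter-Glo luminescence.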
# Cruzain Triton = cruzain (T. cruzi) inhibition with detergent | AID 1478 | P25779 | Potency, µM, for the others: max response, negative = inhibition, hits mostly inhibitors | purified cruzain, Z-FR-AMC fluorescence, 0.01% Triton | hit rate 0.43% among 200,000;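 note: plate controls were neutral wells for no effect and buffer without enzyme for full effect; nearly all actives have a fitted effect of over 40% in size; top concentration of the series not given in the record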
#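 Enzyme 1.5 nM, Z-FR-AMC 2 uM, NaOAc 100 mM pH 5.5, DTT 5 mM, Triton X-100 0.01%; 15 min RT compound preincubation; kinetic ex360/em450, 60 s delta.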
# 2A StopGo = FMDV 2A StopGo reporter, luciferase signal. Potency, µM (doses to about 57.9 µM), for inactives: top-dose signal change, negative = less light. AID 1159524. human cells with a luciferase reporter of 2A StopGo recoding; control for the full effect not named in the record. hit rate 1.2% among 410,000; active = well fitted falling curve with a large enough effect; inconclusive = small, poorly fitted or top-dose-only effect; inactive = no such curve, though single readings can be large or run the other way; tested in HEK293T cells; note: % is set by controls: 0 for no effect and ±100 for the full control effect; nearly all actives have a fitted effect of over 45% in size; luciferase light after 4 h
# Marburg entry inh = blocks Marburg virus binding to or entry into cells; Marburg virus pseudotyped entry inhibition, cell reporter; control for the full effect not named in the record; about a third of the inactives were read at about 46 µM; Potency, µM (top dose mostly 37.8 µM), for inactives: top-dose activity change, negative = inhibition, usual class: inhibitors; hit rate 1.8% among 300,000; AID 540276; active = well fitted inhibition curve with a large enough effect; inconclusive = small, poorly fitted or top-dose-only effect, or effect the other way; inactive = flat fitted curve, though single readings scatter; tested in HEK293 cells; about a fifth of its hits are not listed in these tables; note: % is set by controls: 0 for no effect and ±100 for the full control effect; luciferase read-out
# NS1 function inh = inhibitors of influenza NS1 protein function | S. cerevisiae slowed by influenza A NS1, growth recovery by OD600 | Potency, µM (titrated, usually from 46.1 µM), for the others: top-dose activity, positive = more growth | hit rate 0.4% among 270,000; active means well fitted rising curve with a large enough effect; inconclusive means small, poorly fitted or top-dose-only effect; inactive means no such curve, though single readings can be large or run the other way; note: nearly all actives have a fitted effect of over 50% in size
#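 S. cerevisiae expressing influenza A NS1, grown in glucose, washed, then diluted 1:100 into pH 6.0 -URA galactose medium with 23 nl compound. Growth recovery read as OD600; NS1-free strain serves as control.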
# Lassa entry inh = Lassa virus entry inhibition | Lassa virus pseudotype entry inhibition, cell reporter; control for the full effect not named in the record | Potency, µM (highest dose often 37.9 µM), for inactives: at the highest dose activity change, negative = inhibition, hits mostly inhibitors | hit rate 1.2% among 300,000; active means well fitted inhibition curve with a large enough effect; inconclusive means small, poorly fitted or top-dose-only effect, or effect the other way; inactive means flat fitted curve, though single readings scatter; tested in HEK293 cells; note: % is set by controls: 0 for no effect and ±100 for the full control effect; nearly all actives have a fitted effect of over 50% in size; luciferase read-out
# An asterisk follows results filed as active; ? = inconclusive; nt = not tested or not shown; & = joins results of further samples; [ ] = dose if it differs, or a comment. Unless noted, calls come from the whole dose curve; as a rule, active = well fitted curve in the direction sought with a large enough effect; inconclusive = small, poorly fitted or top-dose-only effect, or another doubt; inactive = no such curve, though single readings can be large; an effect the other way counts as inactive or inconclusive. Potency is the fitted concentration of half-maximal effect.
SMILES,Cruzain noTriton,SARS PLpro yeast,RE007 growth inh,Cruzain Triton,2A StopGo,Marburg entry inh,NS1 function inh,Lassa entry inh
c1ccc(-c2oc3ncnc(NCCCn4ccnc4)c3c2-c2ccccc2)cc1,-3.4%,-1.7%,-6.8%,-8.1%,?,?,-35.0%,-29.6%
O=C(C1CCN(S(=O)(=O)N2CCCCC2)CC1)N1CCCCC1,-7.8%,-8.1%,-8.0%,-0.5%,5.9%,2.2%,-9.3%,?
Cc1cc(C)nc(N/N=C/c2ccc(N3CCOCC3)cc2)n1,nt,-0.1%,0.5%,nt,-19.9%,-18.8%,-0.5%,18.7%
CC(C)=CCC/C(C)=C/CC(C)(C)CNCCN1CCNCC1,3.3%,-7.1%,nt,1.3%,nt,1.8%,3.5%,nt
O=C(NN1CCOCC1)c1ccc(S(=O)(=O)N2CCCCC2)cc1,nt,0.3%,-4.0%,nt,-13.8%,2.0%,nt,7.9%
O=S(=O)(Nc1nccs1)c1ccc(Br)cc1,nt,0.0%,16.3%,nt,42.2%[activator],5.4%[46.1 µM],-2.4%,10.6%
CCn1c(SCC(=O)c2ccc3c(c2)OCCO3)nnc1-c1ccco1,-6.0%,-9.6%,22.7%,-6.9%,4.8%,10.1%[46.1 µM],-9.7%,12.4%
CCCCCn1c(=O)c(C(=O)NCc2ccncc2)c(O)c2ccccc21,12.4%,-7.9%,-14.8%,-7.1%,-14.0%,?,-195.5%,?
COc1ccc2oc(C(=O)OC/C(O)=C(\C#N)c3nc4ccccc4[nH]3)c(C)c2c1,nt,4.1%,4.6%,nt,-7.4%,nt,-7.1%,nt
COC(Cc1n[nH]c(=S)n1-c1ccccc1)OC,-8.0%,1.6%,9.6%,3.4%,23.1%,-10.6%,2.8%,23.2%
CCC(C)(C)C1CCC2(CC1)NC(=O)N(CC(=O)NCCc1c[nH]c3ccccc13)C2=O (configuration not stated),nt,-1.7%,2.1%,nt,?,?,nt,-17.9%
Cc1nn(-c2ccccc2)c(Cl)c1C(=O)OC(C)C(=O)NC(=O)NC1CCCCC1 (configuration not stated),8.1%,-25.2%,15.1%,-5.4%,-5.0%,17.9%,23.5%,0.2%
COc1ccc(C(C(=O)NCc2ccccc2)N(C(=O)c2snc(C(N)=O)c2N)C2CCCC2)cc1O (configuration not stated),nt,-0.8%,4.3%,nt,-1.6%,?,-0.1%,-9.1%[46.1 µM]
CC(C)=NNc1nc2sc3c(c2c(=O)[nH]1)CC(C)(C)OC3,-10.1%,-17.2%,12.5%,-3.3%,22.3%,-4.5%,0.3%,7.08µM*
Clc1ccc(CN2CCN(c3ncccn3)CC2)c(Cl)c1,nt,5.3%,-0.3%,nt,-29.2%,nt,-18.9%,nt
CC1=CC(C)(C)N(C(=O)CSc2nccn2C)c2cc(C)ccc21,3.5%,8.1%,-6.2%,-0.6%,-25.2%,-27.7%,-21.0%,0.1%
O=C(Cn1c(=O)n(-c2ccc(F)cc2)c(=O)c2sccc21)N1CCCC1,-3.6%,3.2%,-7.1%,4.5%,0.0%,20.0%,2.0%,-0.5%
CCn1c(-c2ccccc2Cl)nn(CC(=O)Nc2ccc(OC)cc2)c1=S,3.4%,5.8%,-8.9%,0.5%,8.1%,-9.3%,-5.6%,-15.0%
N/C(Cc1ccc([N+](=O)[O-])cc1)=N\OC(=O)C1CCCCC1,nt,-0.5%,-0.1%,nt,16.8%,12.5%[46.1 µM],-3.5%,12.5%[46.1 µM]
CC(C)N(CCC(=O)c1ccc2ccccc2c1)Cc1ccccc1,7.94µM*,nt,3.98µM*,7.94µM*,-28.7%&-28.6%,12.6µM*,-33.7%,5.17µM*
CC(NC(=O)CSc1nnc(-c2cc3cc(Cl)ccc3o2)n1C)c1ccccc1 (configuration not stated),?,7.2%,-14.4%,-1.7%,-20.0%,-7.4%,-17.9%,-1.4%
Cc1nc(N)ncc1Sc1ccccc1,nt,-0.7%,4.3%,nt,-3.9%,10.5%,-3.8%,1.9%
CC(C(=O)NC(C)(C)C)N1C(=O)c2cccc3cccc(c23)C1=O (configuration not stated),nt,-1.4%,-3.3%,nt,-13.1%,5.7%[46.1 µM],nt,16.5%
CCOc1cc(/C=N/NC(=O)c2cc(-c3cccnc3)nc3ccccc23)ccc1O,nt,-1.2%,5.2%,nt,?,-26.3%[46.1 µM],nt,7.8%
O=C(Nc1nccs1)c1cccc(S(=O)(=O)N2CCCC2)c1,nt,3.9%,6.3%,nt,11.2%,2.1%[46.1 µM],?,?
Cc1ccccc1/C=C/c1nc2ccccc2c(=O)n1Cc1ccccc1,-10.6%,6.9%,12.5%,-5.9%,-21.8%,0.6%,5.1%,5.1%
COc1cc(/C=C/C(=O)O)cc(S(=O)(=O)NCCO)c1OC,-0.8%,12.6%,-15.2%,-4.4%,-3.6%,-1.1%,-0.9%,-0.4%
CN1CCC2(CC1)N=C(c1ccc(F)cc1)C(=S)N2,nt,2.3%,23.3%,nt,5.4%,?,nt,nt
O=C1CN(c2ccccc2F)C(=O)CN1c1ccccc1F,7.6%,4.8%,-10.7%,-1.5%,13.8%,?,1.1%,?
O=C(c1ccccn1)N(c1ccccc1)C1(C(=O)NC2CCCCC2)CCCCC1,nt,3.1%,-0.8%,nt,31.8%[activator],2.8%,nt,-1.1%
COc1ccccc1OC(C)C(=O)N1CCN(CCc2ccccn2)CC1 (configuration not stated),-13.4%,nt,nt,-1.0%,1.9%,1.2%[46.1 µM],nt,25.2%[46.1 µM]
CC(Oc1ccccc1)c1ccnn1S(C)(=O)=O (configuration not stated),7.7%,8.7%,-0.5%,1.3%,3.1%,-29.9%[46.1 µM],4.3%,34.5%
O=C(NCc1cn2ccccc2n1)c1ccc(Br)o1,?,-3.3%,-12.3%,-1.0%,-4.7%,nt,2.1%,nt
Fc1ccc(Cc2cn3cc(-c4ccc(F)cc4)nc3s2)cc1,-7.1%,nt,nt,-3.3%,-36.3%,nt,nt,-1.2%[46.1 µM]
COCCCNC(=O)CCCC(=O)NCCCOC,-11.7%,7.1%,2.8%,1.3%,5.2%,3.0%,7.5%,0.6%
COc1ccc(COc2cc(-c3cccc(OC)c3)nc3ccc(N)cc23)cc1,?,3.2%,-15.4%,0.1%&-8.5%,-8.6%,?,4.47µM*,?
CC(=O)N1CCc2cc(Br)cc(S(=O)(=O)NCCc3cccc(C)c3)c21,2.3%,nt,nt,-3.7%,49.1%[activator],nt,nt,-14.1%[46.1 µM]
Nc1ncc2c(n1)-c1ccoc1CC2,nt,0.5%,-1.6%,nt,-0.4%,?,2.6%,?
Cc1cc(C(=O)NNc2ccc(F)cc2)no1,nt,-2.7%,269.1%,nt,14.3%,14.7%,-49.5%,-7.8%
Cc1ccc([N+](=O)[O-])cc1NC(=S)NC(=O)c1ccco1,3.2%,24.2%,nt,1.9%,-0.5%,2.8%,-5.9%,-13.3%
CCOC(=O)CNS(=O)(=O)c1cc(-c2nnc(Nc3ccc4c(c3)OCO4)c3ccccc23)ccc1C,4.6%,-20.3%,-19.5%,-7.4%,34.9%[activator],?,?,-23.5%
CCC(=O)Nc1ccc2c(c1)OCCO2,0.2%,3.0%,6.0%,3.9%,-16.5%,10.6%,-5.4%,5.5%
O=[N+]([O-])c1ccc(S(=O)(=O)NCCN2CCOCC2)cc1,nt,9.7%,-0.7%,nt,0.6%,0.0%[46.1 µM],4.8%,0.9%
COc1ccc([N+](=O)[O-])cc1NC(=O)c1cccs1,nt,-1.6%,3.5%,nt,-1.9%,1.4%[46.1 µM],nt,-2.1%[46.1 µM]
O=C(O)C(Cc1ccccc1)N1C(=O)c2ccccc2C1=O (configuration not stated),-10.1%,0.4%,8.5%,-7.1%,6.9%,-5.6%[46.1 µM],5.0%,5.6%
O=C(O)C1C2C=CC(C2)C1C(=O)NCCCN1CCOCC1 (configuration not stated),-5.4%,6.7%,15.9%,-0.9%,-5.5%,-9.2%,-11.3%,6.0%
CCn1cc(CNC(=O)NC2CCCCC2)c(C)n1,-2.4%,2.2%,-8.1%,1.9%,29.0%,?,3.3%,12.7%
CCOc1ccc(NC(=O)c2cnn(-c3ccccc3)c2-n2cccc2)cc1,15.1%,nt,nt,-2.3%,-29.7%,-1.2%[46.1 µM],nt,22.9%[46.1 µM]
Cc1noc(C)c1S(=O)(=O)N1CCC(C(=O)N2CCN(Cc3ccc4c(c3)OCO4)CC2)CC1,12.8%,1.8%,8.4%,-3.2%,?,3.1%,-5.4%,-13.3%
O=C1CCCC2=C1C(Cc1ccccc1)C1=C(CCCC1=O)O2,0.3%,-7.7%,0.2%,-2.8%,8.9%,10.9%,0.5%,-0.1%
O=C(CCN1CCc2ccccc2C1)c1ccc2c(c1)OCCO2,?,-36.1%,7.94µM*,?,8.9%,-12.3%,-57.4%,?
CCCNC(=O)Cn1c(=O)oc2ccccc21,-0.1%,3.7%,5.9%,4.8%,-0.3%,?,-4.9%,2.8%
Cc1ccc(-c2ccnc3c(Br)c(C)nn23)cc1,nt,-3.3%,-8.3%,nt,-1.4%,nt,-9.4%,nt
COC(=O)[C@H](Cc1ccccc1)NC(=O)NCCc1ccc(S(N)(=O)=O)cc1,-1.2%,-2.1%,18.3%,1.4%,1.0%,29.5%,1.6%,-8.3%
O=C(O)c1cc(-c2cccs2)[nH]n1,nt,-0.2%,-8.3%,nt,19.6%,-15.8%,0.2%,12.2%
COc1ccc(Cl)cc1C(=O)NCc1nnnn1-c1ccccc1,-2.0%,nt,nt,7.5%,-18.7%,nt,nt,-4.6%[46.1 µM]
CC(=O)N1c2ccc(S(=O)(=O)N3CCCCCC3)cc2CC1C(=O)NCc1ccccc1C (configuration not stated),-8.2%,nt,nt,1.7%,-1.6%,nt,nt,-5.0%[46.1 µM]
